AID504770: E. coli YBA685 growth inhibition, screen for V. cholerae RctB inhibitors; 0.27% of 130,000 active; z-score (concentration not given with the values); E. coli YBA685 rctB-dependent plasmid, OD600 growth, 3 h; stronger effect = lower value;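 active means z-score under -2 on both plates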;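 further: wells of about 30 µL received 100 nL stock; score is relative to mean and SD of the test wells; the first replicate is given; strong numbers were not always called active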
Ba CapD inh: CapD enzyme inhibition; purified CapD enzyme, fluorescence intensity read-out; stronger effect = lower value; some hits fall short of the stated cut; z-score (test concentration not listed); 0.23% of 140,000 active; AID 492967;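 active means z-score under -4 in either of two replicates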;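 further: stock transfer was 100 nL into about 40 µL; score is relative to mean and spread of the plate; one replicate is shown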
* hit, by the source's call; i = inactive; . = not tested or not shown.

SMILES	AID504770	Ba CapD inh
CCN1C(=O)CN(c2ccccc2)C1=S	3.05	-0.905
CN(C)S(=O)(=O)c1ccc(C(=O)OCC(=O)Nc2ccccc2)cc1	1	.
Cc1nc(C(=O)Nc2ccc(F)cc2)nn1-c1cccc(C(F)(F)F)c1	.	-0.11
COc1ccc(N2CCN(CCCn3c(NN)nc4ccsc4c3=O)CC2)cc1	1	0.225
COc1cccc(C2=NN(C(=O)c3ccccc3)C(O)(C(F)(F)F)C2)c1 (configuration not stated)	.	-0.73
O=C(CCc1n[nH]c(=S)[nH]c1=O)NCCc1ccc(Cl)cc1Cl	0.75	.
COC(=O)c1cc2sccc2n1CC(=O)c1ccccc1	1.4	-0.8
O=C(c1cc2ccccc2o1)N1CCCC1	0.4	.
Cc1ccc(/C(O)=C2\C(=O)C(=O)N(c3nncs3)C2c2ccccc2Cl)cc1 (configuration not stated)	.	-0.485
COc1ccc(CC(C#N)C#N)cc1	0.5	0.085
CCOC(=O)c1c(NC(=O)C(C)Sc2nnc(CNC(=O)c3ccccc3C(F)(F)F)n2C)sc2c1CCC2 (configuration not stated)	.	0.15
COc1cc(-c2nc(N3CCCCC3C)c3ccccc3n2)cc(OC)c1OC (configuration not stated)	.	-0.05
Cc1cccc(C)c1NC(=S)N1CCCc2ccccc21	.	0.175
COc1ccc(N(Cc2ccc3c(c2)CCN3C)S(=O)(=O)c2cccc(C(F)(F)F)c2)cc1	.	-0.015
CC(=O)Oc1ccc(C(=O)N(C(=O)c2ccc(OC(C)=O)cc2)c2cc(C)ccn2)cc1	1.4	-0.6
CCc1nnc(/N=C/c2cc(-c3ccccc3)oc2O)s1	2.05	-0.095
COC(=O)C1=C(N)N(c2ccc(Br)cc2)C2=C(C(=O)CCC2)C1c1ccc(OC)c(OC)c1 (configuration not stated)	.	-0.505
CCN(CC)c1cc(Nc2ccc(SC#N)cc2)c([N+](=O)[O-])c2nonc12	.	0.315
CC(Nc1nn2nnnc2c2ccccc12)c1ccccc1 (configuration not stated)	-1.1	1.92
O=C(Cn1cnnn1)Nc1cc(C(F)(F)F)ccc1NC1CCCCC1	0.3	.
CN1C(=O)c2cccc(NC(=O)c3ccccc3)c2C1=O	-0.2	.
COc1ccc(OC(F)(F)C(=O)Nc2c(Cl)cccc2Cl)cc1	.	-0.165
COC(=O)c1sccc1-n1cccc1C(=O)C(Cl)(Cl)Cl	.	0.68
CC(C)(C)C1CCC2(CC1)C(C#N)=C(SCC(=O)NC1CCCCC1)NC(=O)C2C#N (configuration not stated)	-0.7	0.065
COc1ccc(-c2cn[nH]c2-c2ccc(OC)cc2)cc1	-0.65	0.02
CC(C)C(C(=O)OCC(=O)c1cccc([N+](=O)[O-])c1)N1C(=O)C2C3C=CC(C3)C2C1=O (configuration not stated)	.	-0.04
CCOC(=O)C1=C(C)NC2=C(C(=O)C(C(=O)OCC)C(c3ccc(OC)cc3)C2)C1c1cccc([N+](=O)[O-])c1 (configuration not stated)	.	-0.3
COc1ccc(OC)c(/C=N/NC(=S)NCCc2ccccc2)c1	.	40.5
COc1ccc(OC)c(C2C=C(Nc3ccc(C)cc3)C(=O)N2c2ccc(C)cc2)c1 (configuration not stated)	.	0.09
CCn1c(=N)c(C(=O)OC)cc2c(=O)n3cc(C)ccc3nc21	-0.55	17.2
Nc1c(C(=O)Nc2ccccc2)c2nc3ccccc3nc2n1/N=C/c1ccco1	-0.05	.
CCCn1c(CSc2ncccn2)nc2cc(S(=O)(=O)N3CCOCC3)ccc21	-0.6	.
CCn1c(SCC(=O)OC)nnc1-c1ccc(O)cc1	1.35	.
O=S(=O)(NCc1ccccc1)c1ccccc1F	0	0.89
N#Cc1sc2nc(-c3ccccc3)cc(C(F)(F)F)c2c1N	-1.3	-0.6
COc1ccc(CC(=O)OCC(=O)NC2CCCCC2)cc1	-0.25	.
O=C1CN(S(=O)(=O)c2ccc3c(c2)Cc2ccccc2-3)CC(=O)N1	-0.3	0.175
Cc1nnc2sc(-c3ccc(NC(=S)NC(=O)c4cccs4)cc3)nn12	0	2.03
N#Cc1ccc(COC(=O)CN2C(=O)CSc3ccccc32)cc1	0.15	.
COc1ccc(NC(=O)Cn2c(-c3ccc(C)cc3)nc3ccccc3c2=O)c(OC)c1	.	0.27
CC(C)C(=O)Nc1ccc(-c2nc3ccccc3c(=O)[nH]2)cc1	-0.95	3.15
O=C(O)CSc1nc2ccccc2nc1SCC(=O)O	-0.9	-0.955
Cc1ccc(-n2ncc3c(N4CCN(Cc5ccccc5)CC4)ncnc32)c(C)c1	.	-0.405
CN(C)S(=O)(=O)c1ccc(S(=O)(=O)N2CCN(CCC#N)CC2)cc1	-0.95	0.52
CC(C)(C)C1=CC(=O)C(N2CCN(Cc3ccccc3)CC2)=CC1=O	-1.05	.
N#CC(c1ccc2c(c1)OCO2)N1CCN(C(C#N)c2ccc3c(c2)OCO3)CC1 (configuration not stated)	0.5	.
C=CCNC(=O)c1c(N)n(/N=C/c2ccccc2O)c2nc3ccccc3nc12	1.45	.
COc1ccc(C(C2C(=O)N(c3ccccc3)N=C2C)C2C(=O)N(c3ccccc3)N=C2C)cc1OC (configuration not stated)	.	-1.67
Fc1ccc(CSC(=S)N2CCN(C(=S)SCc3ccc(F)cc3)CC2)cc1	2.7	-0.875
CCn1c2ccccc2c2cc(CN(C)Cc3ccccc3)ccc21	-0.25	25.3
COc1cccc(OCC2CCCNC2)c1 (configuration not stated)	-0.6	.
CC(=O)N(c1ccccc1)c1nc(COC(=O)/C=C/c2cccs2)cs1	0.75	.
N#CC1=C(N)C(C#N)(C#N)C(c2ccccc2Cl)C2CN(Cc3ccccc3)CC=C12 (configuration not stated)	.	30.3
O=C(CCCn1c(=O)[nH]c2ccsc2c1=O)Nc1ccc(F)cc1	0.1	0.46
COc1ccccc1OCC(=O)Nc1ncc(Cc2ccc(F)cc2)s1	-0.4	i
O=C1Nc2ccccc2/C1=N\N=C\C1=C(N2CCOCC2)C(=C\c2ccccc2)/CC1	-0.2	.
Clc1cc2c(c3ncccc13)OCN(CCCN1CCOCC1)C2	0.85	-0.38
Cc1ccccc1-c1nc(C#N)c(NC2CCCCC2)o1	-0.1	71.6
Cc1ccc(C(=O)NC(O)(C(F)(F)F)C(F)(F)F)cc1	0.8	-0.51
COc1ccc(C2=NN(c3ccc([N+](=O)[O-])cc3)C(=O)/C2=C\c2ccc(OC)c(OC)c2OC)cc1	.	-0.57

The results go on.
SMILES	AID504770	Ba CapD inh
CC1Cc2ccccc2N1C(=O)Nc1ccc(Cl)c(Cl)c1 (configuration not stated)	-0.1	0.08
O=C(CN1CCCC1)Nc1ccc(I)cc1	-0.75	-0.17
Cc1ccc(OCC(=O)NC2CC(C)(C)NC(C)(C)C2)c(C)c1	-0.2	-0.19
COc1ccc2[nH]c(C(=O)N(Cc3ccccn3)Cc3ccccn3)cc2c1	1.6	13.3
COC(=O)c1oc2ccc(Br)cc2c1NC(C)=O	2.05	0.485
Cc1cnc(C(=O)OCC(=O)N2C(C)CCCC2C)cn1 (configuration not stated)	0.45	.
Cc1ccc(C2CC(c3ccco3)=Nc3ccccc3S2)cc1 (configuration not stated)	.	-0.73
Cc1ccc(NC(=O)C(=O)NCCCO)cc1	.	0.545
Cc1ccc2nc(N3CCN(c4cccc(C)c4C)CC3)c(-n3nc(C)cc3C)nc2c1	-0.5	0.32
Cn1c(SCC(=O)c2ccc(Cl)s2)nnc1C1COc2ccccc2O1 (configuration not stated)	-0.8	.
O=S(=O)(c1cccs1)N1CCN(CCC2CCCCC2)CC1	.	-0.28
CCN1C(=O)c2ccc(Oc3ccc4c(c3)C(=O)N(CC)C4=O)cc2C1=O	-0.8	2.18
CCC1CC(/C(C)=N/NC(N)=O)OC1=O (configuration not stated)	0	.
COc1ccc(NC(=O)c2ccco2)cc1NC(=S)NC(=O)Cc1ccccc1	0.65	-0.405
Brc1ccc(Cn2ncc3ccccc32)cc1	0.25	0.285
COc1ccccc1C(=O)NCCOc1ccc(C)c(C)c1	-1	-0.055
O=C(OCc1nc2ccsc2c(=O)[nH]1)c1ccc(N2CCCC2=O)cc1	-0.8	.
CC1CN(C(=O)COC(=O)c2ccc(NC(=O)CC#N)cc2)CC(C)O1 (configuration not stated)	-1.1	.
CCOC(=O)C1=C(N)OC2=C(C(=O)CC(C)(C)C2)C1C1CCCCC1 (configuration not stated)	.	-0.135
O=S(=O)(c1ccccc1)n1cnc2ccccc21	-0.55	-0.205
CSc1nc(SC)c2c3c(sc2n1)CN(C)CC3	-2.15	15.6
CCc1ccc2occ(CC(=O)Nc3ccc(F)cc3)c2c1	-0.65	-0.205
Cc1cccc(/C=C2\Sc3ccc(C(=O)NC(C)C)cc3N(C)C2=O)c1	-0.7	-0.11
O=C(Nc1c(C(=O)N2CCN(Cc3ccccc3)CC2)oc2ccccc12)c1ccccc1	1.3	11.4

Complete entries, looked up by structure. Order of values: AID504770, Ba CapD inh
O=C(Nc1c(C(=O)N2CCN(Cc3ccccc3)CC2)oc2ccccc12)c1ccccc1 is listed as 1.3, 11.4
CSc1nc(SC)c2c3c(sc2n1)CN(C)CC3 is listed as -2.15, 15.6
O=S(=O)(c1ccccc1)n1cnc2ccccc21 is listed as -0.55, -0.205
CCOC(=O)C1=C(N)OC2=C(C(=O)CC(C)(C)C2)C1C1CCCCC1 (configuration not stated) is listed as ., -0.135

More structures follow:
SMILES	AID504770	Ba CapD inh
Clc1ccccc1-c1nc(-c2cc(-c3ccccc3)oc2-n2cccc2)no1	.	0.77
CC(=O)N1CCC(=NNC(=O)c2cccc(S(=O)(=O)Nc3ccccc3Cl)c2)CC1	-0.15	.
COCCNC(=S)N1CCCC(CO)C1 (configuration not stated)	1.4	-0.4
O=C(Nc1ccccc1-c1nc2ccccc2[nH]1)c1ccc(F)cc1F	-0.95	0.48
Cc1cccn2c(=O)c(C=Nc3ccc(Cl)cc3)c(Sc3ccccc3)nc12	-0.55	0.5
Cc1ccc2occ(C(=O)c3ccccc3Cl)c(=O)c2c1	0.4	.
O=S(=O)(c1c(F)cccc1F)N1CCCC2CCCCC21 (configuration not stated)	-1.35	.
CC1CCCCN1CCNC(=O)CCc1nnc2n(Cc3ccc(F)cc3)c(=O)c3ccccc3n12 (configuration not stated)	0.1	34.9
O=C(OCN1C(=O)c2ccccc2C1=O)c1ccc(Cl)cc1	-0.1	0.69
CN(CCOc1ccccc1)c1ccc(S(=O)(=O)N2CCCCC2)cn1	-0.45	.
Cn1c(=NC(=O)C2=NNC(=O)CC2)sc2ccccc21	-0.3	.
COc1ccc2cc3cc(C(=O)NCCN(C)C)oc3nc2c1	0.1	8.63

Laid out differently: results already given
The line under a structure holds: AID504770	Ba CapD inh
> Clc1ccccc1-c1nc(-c2cc(-c3ccccc3)oc2-n2cccc2)no1
  .	0.77
> CC(=O)N1CCC(=NNC(=O)c2cccc(S(=O)(=O)Nc3ccccc3Cl)c2)CC1
  -0.15	.
> COCCNC(=S)N1CCCC(CO)C1 (configuration not stated)
  1.4	-0.4
> O=C(Nc1ccccc1-c1nc2ccccc2[nH]1)c1ccc(F)cc1F
  -0.95	0.48
> Cc1cccn2c(=O)c(C=Nc3ccc(Cl)cc3)c(Sc3ccccc3)nc12
  -0.55	0.5

Next section:
SMILES	AID504770	Ba CapD inh
CC(NC(=O)c1ccco1)C(c1cccs1)N1CCN(c2ccccc2)CC1 (configuration not stated)	-0.35	-0.205
CN(C)S(=O)(=O)c1ccc2c(c1)Cc1cc(S(=O)(=O)N(C)C)ccc1-2	0.7	0.025
CC1=C(C(=O)OCc2ccc3c(c2)OCO3)C(c2cccc(Br)c2)NC(=O)N1 (configuration not stated)	.	0.12
CC12COC3(C(=O)Nc4ccccc4Br)CC1CCC32C (configuration not stated)	.	-0.57
Oc1ccc(Oc2c(F)c(F)c(Oc3ccc(O)cc3)c(F)c2F)cc1	0.2	0.2
CNS(=O)(=O)c1cccs1	0.3	0.835
O=c1[nH]c2c(oc3ccc(Cl)cc32)c(=O)n1-c1ccccc1	0.5	66.3
CC(=O)NC(C)Cc1c(C(=O)O)[nH]c2ccccc12 (configuration not stated)	-0.3	0.68
COc1ccc(CC(CC(=O)O)C(=O)NCc2ccccc2)cc1 (configuration not stated)	-0.3	.
COC(=O)c1c(SC)[nH]c2ccccc2c1=O	-1.2	-0.41
CCC(=O)N1CCc2cc(S(=O)(=O)N(CC)CC)ccc21	-0.65	-0.185
Oc1c(C(Nc2ccccn2)c2ccccc2)ccc2cccnc12 (configuration not stated)	0.05	-0.37
CCN1CC(O)=C(c2ccccc2)C1=N	-0.2	0.61
CCOC(=O)c1nnn(-c2nonc2N)c1CN1CCN(C)CC1	.	-0.7
O=c1[nH]cnc2c1nc(NCc1ccccc1)n2C1OC(CO)C(O)C1O (configuration not stated)	.	-0.475
O=C(c1ccc2c(=O)n(Cc3ccc4c(c3)OCO4)c(=S)[nH]c2c1)N1CCC2(CC1)OCCO2	.	-0.515
CN(C)c1ccc(CN(CC2CCCO2)C(=O)COc2ccccc2)cc1 (configuration not stated)	0.4	-0.27
O=C1Nc2ccc(F)cc2/C1=N/N1CCOCC1	.	0.16
O=C(COc1ccc2oc3ccccc3c2c1)NCCc1ccccn1	-0.1	.
